Source: PubChem BioAssay (several laboratories)
Mtb H37Rv: M. tuberculosis H37Rv growth inhibitors, H37Rv strain (AID 1626); M. tuberculosis H37Rv growth inhibition; higher % means a stronger effect; one-dose inhibition, % at 10 µM; IC50 in µM for titrated hits; 220,000 compounds, 0.95% hits;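 active = confirmed in a dose series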;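 also: bacteria incubated seven days before Alamar blue readout; 0% = bacteria only wells and 100% = bacteria with antibiotic wells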
RecA splice inh: blocks M. tuberculosis RecA intein splicing | inhibition, %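 (about 9 µM by stock and volumes)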 | 290,000 compounds, 0.75% hits | P9WHJ3 | AID 2221 | cell-free RecA intein splicing, fluorescence; in the data active = inhibition above about 30%;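 also: 0% = vehicle wells and 100% = reference inhibitor control wells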
Target sequence (P9WHJ3 whole entry, looked up, canonical isoform): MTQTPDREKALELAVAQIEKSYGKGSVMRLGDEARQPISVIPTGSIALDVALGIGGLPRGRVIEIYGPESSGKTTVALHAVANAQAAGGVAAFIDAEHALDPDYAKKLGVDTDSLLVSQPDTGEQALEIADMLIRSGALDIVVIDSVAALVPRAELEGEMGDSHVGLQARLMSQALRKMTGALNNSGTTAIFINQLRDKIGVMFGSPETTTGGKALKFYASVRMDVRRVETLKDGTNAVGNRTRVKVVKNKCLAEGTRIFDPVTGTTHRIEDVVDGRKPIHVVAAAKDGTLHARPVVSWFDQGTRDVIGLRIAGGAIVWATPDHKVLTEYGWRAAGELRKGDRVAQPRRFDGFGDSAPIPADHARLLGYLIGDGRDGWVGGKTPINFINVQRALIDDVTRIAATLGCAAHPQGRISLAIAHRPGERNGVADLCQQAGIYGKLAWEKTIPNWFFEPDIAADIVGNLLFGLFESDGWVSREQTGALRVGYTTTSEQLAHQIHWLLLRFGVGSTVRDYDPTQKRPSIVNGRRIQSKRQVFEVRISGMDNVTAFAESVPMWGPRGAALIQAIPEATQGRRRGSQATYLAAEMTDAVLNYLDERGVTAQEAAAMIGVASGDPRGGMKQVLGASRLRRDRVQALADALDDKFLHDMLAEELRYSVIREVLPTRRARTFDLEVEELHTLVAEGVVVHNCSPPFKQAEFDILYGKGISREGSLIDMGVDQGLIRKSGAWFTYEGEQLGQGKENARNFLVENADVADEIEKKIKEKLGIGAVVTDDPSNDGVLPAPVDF
YopH PTP inh: inhibitors of Yersinia enterocolitica YopH tyrosine phosphatase; inhibition, %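 (about 10 µM by stock and volumes)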; 140,000 compounds, 0.16% hits; AID 898; fluorescence Ex485/Em525;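 active = inhibition of 50% or more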;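 also: controls were vehicle for no effect and minimum signal wells for full effect; inactives centre near -20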
Arbovirus anti: blocks arbovirus infection; arbovirus infection cell-based antiviral screen; inhibition, % at 10 µM; 200,000 compounds, 0.37% hits; AID 1251;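 active = inhibition from about 30%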;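 also: bluetongue infection of BSR cells; cell survival read as ATP light after 72 h; 0% = infected wells without compound and 100% = uninfected wells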
Mtb betalactam: beta-lactam sensitization of Mtb H37Rv; 330,000 compounds, 0.27% hits; M. tuberculosis H37Rv growth with meropenem, percent inhibition; hits of this screen are not shown here; AID 434955; inhibition, % at 25 µM;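 active = about 74% or more and at least 40 points above the plate without the antibiotic, then above 30% in a dose series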;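 also: growth measured after seven days incubation then overnight dye step; 0% = bacteria only wells and 100% = bacteria with antibiotic; twin plates without the antibiotic show which effects depend on it; some results filed as inactive read as strong as hits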
Arbovirus anti repeat: second read-out of Arbovirus anti, no call of its own (marks repeat the call); inhibition, %; measured here: 10K subset replicate screen; many hits read low in the repeat;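 first of two repeat runs on a subset; 0% = infected and 100% = uninfected wells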
* hit, by the source's call. Not all compounds are listed. The share of hits here may be higher or lower than overall.

`Cc1c(Cl)cccc1NC(=O)CNC(=O)c1ccccc1F` gave Mtb H37Rv 8%, RecA splice inh 1.9, YopH PTP inh -31, Arbovirus anti -6 and Mtb betalactam 4.
Screening Cc1cccc(NC(=S)NC(=O)c2ccc(-c3ccccc3)cc2)n1 returned RecA splice inh 4.7 and Mtb betalactam 7.
N/C(=N\OC(=O)c1cccc(Cn2cc(C(F)(F)F)ccc2=O)c1)c1ccccc1 was read as Mtb H37Rv 5%, RecA splice inh 1.8 and Mtb betalactam 0.
`COc1ccc(C2C(C#N)=C(N)Oc3n[nH]c(C)c32)cc1Cn1nnc2ccccc21` (stereo unspecified) gave Mtb H37Rv -8%, RecA splice inh 61*, YopH PTP inh -28, Arbovirus anti -4, Mtb betalactam 8 and Arbovirus anti repeat -1.
Screening O=C(Nc1cccc(S(=O)(=O)N2CCCCCC2)c1)C1=COCCO1 returned RecA splice inh 2.2 and Mtb betalactam 4.
Screening Cn1c(C2=C(O)CN(Cc3ccccc3)C2=N)[n+](C)c2ccccc21 returned Mtb H37Rv -15%, RecA splice inh -4.0, Arbovirus anti -6 and Mtb betalactam 12.
CCC(=NCc1ccccc1)C1=C(O)C(C(=O)OC)C(C)(C)CC1=O (stereo unspecified) was read as Mtb H37Rv 0%, RecA splice inh -0.3, YopH PTP inh -1, Arbovirus anti 12 and Mtb betalactam -4.
For Cc1nnc(NC(=O)C(c2ccccc2)c2ccccc2)s1 the results were RecA splice inh 1.1 and Mtb betalactam 3.
Screening COc1ccc(/C=C2\Oc3cc(OCC(=O)N4CCC(C(=O)O)CC4)ccc3C2=O)c(OC)c1OC returned RecA splice inh -1.1 and Mtb betalactam 4.
Screening CCn1c(C(=O)NCCCc2ccccc2)cc2sccc21 returned Mtb H37Rv 10%, RecA splice inh 0.9, YopH PTP inh -17, Arbovirus anti 22 and Mtb betalactam 4.
`COc1ccc(-c2cc(C(F)(F)F)nc(N)n2)cc1` gave Mtb H37Rv -7%, RecA splice inh 0.4, Arbovirus anti -4 and Mtb betalactam 0.
For NC(=O)C(F)(F)C12OC3C4C5CC(C6C5C3C61)C42 (stereo unspecified) the results were Mtb H37Rv -8%, RecA splice inh -1.8, YopH PTP inh -25, Arbovirus anti 13 and Mtb betalactam 3.
`CC(C)(C)OC(=O)N1CCC2(CC1)Oc1ccc(F)cc1C(=O)C21CC(c2cccnc2)=NO1` (stereo unspecified) gave Mtb H37Rv 0%, RecA splice inh 4.2 and Mtb betalactam 1.
`O=C1CC(c2ccc(F)cc2)C2=C(CCCC2=O)N1` (stereo unspecified) gave Mtb H37Rv -8%, RecA splice inh -2.4, YopH PTP inh -20, Arbovirus anti -5 and Mtb betalactam 0.
Cc1cc(/C=C2/NC(=S)NC2=O)c(C)n1-c1cccnc1 was read as Mtb H37Rv 1%, RecA splice inh -2.3, Arbovirus anti 3 and Mtb betalactam 9.
`Cc1ccc(C(=O)NCCNC(=O)c2cccnc2)cc1` gave RecA splice inh 2.1 and Mtb betalactam 1.
CC1=C(c2ccc(C)cc2)[N+](=O)C(C)(C)N1[O-] was read as Mtb H37Rv 8%, RecA splice inh -3.1, Arbovirus anti 1 and Mtb betalactam -4.
`CCCn1c(=O)c(C(=O)NCCc2ccc(Cl)cc2)c(O)c2ccccc21` gave RecA splice inh 3.4 and Mtb betalactam 5.
`CCN(CC(=O)NC1CC1)S(=O)(=O)c1ccc(C)cc1` gave RecA splice inh -0.7 and Mtb betalactam -2.
O=C(COC(=O)c1ccc2[nH]c3c(c2c1)CCCC3)Nc1ccccc1 was read as Mtb H37Rv 2%, RecA splice inh -5.0, YopH PTP inh -2, Arbovirus anti -4 and Mtb betalactam 9.
Screening COc1ccc(NC(=O)C/C(C)=N/NC(=O)C(=O)Nc2cccc(Cl)c2C)c(OC)c1 returned Mtb H37Rv 3%, Arbovirus anti -15 and Mtb betalactam 29.
COC(=O)[C@H]1[C@@H](C)N(CCc2cc(OC)c(OC)c(OC)c2)C(=O)N[C@H]1c1ccccc1 was read as Mtb H37Rv -9%, RecA splice inh 1.2 and Mtb betalactam -11.
For CCCOc1ccc(NC(=O)c2c(-c3ccccc3)noc2C)cc1 the results were Mtb H37Rv -12%, YopH PTP inh -28, Arbovirus anti -3, Mtb betalactam 0 and Arbovirus anti repeat -1.
CSc1ccccc1NC(=O)Cn1c(-c2cscn2)nc2ccccc21 was read as Mtb H37Rv -1%, RecA splice inh 2.2, YopH PTP inh 15, Arbovirus anti 18 and Mtb betalactam -2.
`CCCCC(=O)Nc1ccc(F)c(Cl)c1` gave Mtb H37Rv 5%, RecA splice inh -0.4, YopH PTP inh -29, Arbovirus anti -6 and Mtb betalactam -4.
`COc1cccc(NC(=O)Nc2ccc3c(c2)CCC3)c1` gave RecA splice inh 3.9 and Mtb betalactam -17.
For Cc1cc(C)n(CCN(C)Cc2cn[nH]c2-c2ccc(F)cc2F)n1 the results were Mtb H37Rv -1%, RecA splice inh 1.9, Arbovirus anti 0 and Mtb betalactam 3.
Screening Cn1c(=O)c(Oc2ccc(F)cc2)c(O)c2ccccc21 returned Mtb H37Rv 73%, RecA splice inh -2.1, YopH PTP inh -34, Arbovirus anti 14 and Mtb betalactam 100.
For O=C(c1cc(COc2ccc(F)cc2F)on1)N1CCSCC1 the results were Mtb H37Rv -2%, RecA splice inh 3.3, Arbovirus anti -1 and Mtb betalactam -5.
For O=C(/C=C/c1ccccc1[N+](=O)[O-])OC1CCCCC1=O (stereo unspecified) the results were Mtb H37Rv 14%, RecA splice inh -1.9, Arbovirus anti 19 and Mtb betalactam -2.
For COc1ccccc1NS(=O)(=O)c1ccc2oc(SC)nc2c1 the results were RecA splice inh 3.1 and Mtb betalactam -7.
For CCc1cc(-c2n[nH]c(CCC(=O)O)c2-c2nc3ccccc3n2C)c(O)cc1O the results were Mtb H37Rv 4%, RecA splice inh -5.4, Arbovirus anti 0 and Mtb betalactam -7.
Screening CSc1ccccc1C(=O)C1CCCN(C(=O)c2csnn2)C1 (stereo unspecified) returned Mtb H37Rv 6%, RecA splice inh -0.1, Arbovirus anti 3 and Mtb betalactam -6.
O=C(N/N=C/c1cccnc1)c1cc(O)c(O)c(O)c1 was read as RecA splice inh -18 and Mtb betalactam 4.
Cc1ccc(NC(=O)C/C(N)=N/O)cc1C was read as Mtb H37Rv 73%, YopH PTP inh -30, Arbovirus anti -1 and Mtb betalactam 86.
COc1ccccc1CNC(=O)CCNC(=O)N1CC(=O)Nc2ccccc21 was read as RecA splice inh -1.1 and Mtb betalactam 1.
Screening COc1cc(C2C(C#N)=C(N)N(N(C)C)C3=C2C(=O)CCC3)cc(OC)c1OC (stereo unspecified) returned RecA splice inh -2.7 and Mtb betalactam -5.
O=C(CCC(=O)N(CC(=O)NC1CCCC1)Cc1ccc(F)cc1)Nc1nccs1 was read as RecA splice inh -2.1 and Mtb betalactam 4.
COc1ccc(CNC(=O)C2CCCN(S(=O)(=O)c3ccccc3)C2)cc1 (stereo unspecified) was read as RecA splice inh 0.6 and Mtb betalactam -7.
Cc1nnc(SCC(=O)N2CCCC(C(=O)c3ccc(Cl)cc3)C2)o1 (stereo unspecified) was read as Mtb H37Rv 2%, RecA splice inh 0.7, Arbovirus anti 0 and Mtb betalactam -6.

Brought forward from above: two entries, followed by the next part.
COc1ccc(CNC(=O)C2CCCN(S(=O)(=O)c3ccccc3)C2)cc1 (stereo unspecified) was read as RecA splice inh 0.6 and Mtb betalactam -7.
Cc1nnc(SCC(=O)N2CCCC(C(=O)c3ccc(Cl)cc3)C2)o1 (stereo unspecified) was read as Mtb H37Rv 2%, RecA splice inh 0.7, Arbovirus anti 0 and Mtb betalactam -6.
Screening O=C(CSc1cccc2cccnc12)N/N=C/c1ccc(O)cc1 returned Mtb H37Rv -14%, RecA splice inh -1.7 and Mtb betalactam 4.
For CCOC(=O)C1CCCN(CC(=O)Nc2nccs2)C1 (stereo unspecified) the results were RecA splice inh -1.4 and Mtb betalactam -6.
CC(=O)c1c(C)n(CC(=O)NCc2ccco2)c2ccccc12 was read as Mtb H37Rv 2%, RecA splice inh -0.9, Arbovirus anti 4 and Mtb betalactam 2.
Screening CN1CC(=O)N(CC(=O)NCc2ccc3c(c2)OCO3)C1=O returned Mtb H37Rv -6%, YopH PTP inh 2, Arbovirus anti 5 and Mtb betalactam -1.
Screening CC(C(=O)N1CCN(c2ccc(Cl)cc2)CC1)c1ncc(C(F)(F)F)cc1Cl (stereo unspecified) returned Mtb H37Rv 9%, RecA splice inh 6.6, YopH PTP inh -22, Arbovirus anti -3 and Mtb betalactam -2.
Screening CCC(C)NC(=O)CSc1nc2n[nH]c(C)c2c(=N)n1-c1ccc(OC)cc1 (stereo unspecified) returned Mtb H37Rv -1%, RecA splice inh 2.6, YopH PTP inh -25, Arbovirus anti -8 and Mtb betalactam 4.
`CN(C)C(=O)CSc1nnc([C@H](Cc2ccccc2)NC(=O)OC(C)(C)C)o1` gave Mtb H37Rv 5%, RecA splice inh 1.3 and Mtb betalactam -3.
Cc1ccc(C)c(NC(=O)C(Sc2cccc[n+]2[O-])c2ccccc2)c1 (stereo unspecified) was read as Mtb H37Rv 2%, RecA splice inh 1.7, Arbovirus anti 3 and Mtb betalactam -9.
`CCn1nc(C(=O)OC(C(=O)c2c[nH]c3ccccc23)c2ccccc2)c2ccccc2c1=O` (stereo unspecified) gave Mtb H37Rv -1%, RecA splice inh -2.4, YopH PTP inh 4, Arbovirus anti -14 and Mtb betalactam -13.
Screening COc1cc(O)c(CCC(=O)c2ccc(OC)c(OC)c2)c(OC)c1 returned RecA splice inh -1.1 and Mtb betalactam -7.
Cc1cc(=O)oc2c3c(cc(OCC(=O)NCc4ccccc4)c12)OC(C)(C)CC3 was read as RecA splice inh 1.4 and Mtb betalactam -4.
Screening CSc1ncccc1C(=O)NCCc1ccc(Cl)cc1 returned Mtb H37Rv -4%, RecA splice inh 0.7, Arbovirus anti 14 and Mtb betalactam 3.
`COc1ccccc1N1CCN(C(=O)c2ccc(Cn3c(=O)[nH]c4ccsc4c3=O)cc2)CC1` gave Mtb H37Rv 4%, RecA splice inh 0.8 and Mtb betalactam 6.
`CCN(CC)CCCN1C(=O)CSC1c1ccc2c(c1)OCO2` (stereo unspecified) gave Mtb H37Rv -5%, RecA splice inh -1.4, YopH PTP inh -24, Arbovirus anti 2 and Mtb betalactam 3.
For Cc1nn(-c2cccc(Cl)c2)c(Cl)c1/C=N/NC(=O)c1cccs1 the results were Mtb H37Rv 5%, RecA splice inh -5.2, YopH PTP inh -33, Arbovirus anti -18 and Mtb betalactam -2.
CC(=O)c1ccc(C(=O)N(C)C2CCCN(Cc3ccccc3F)C2)s1 (stereo unspecified) was read as RecA splice inh -0.4 and Mtb betalactam -7.
Screening CN(CCC#N)C(=S)Nc1ccc(S(=O)(=O)N2CCOCC2)cc1 returned Mtb H37Rv 0%, RecA splice inh 3.6, Arbovirus anti 27 and Mtb betalactam -1.
COc1ccccc1C(=O)C1CCCN(Cc2cn[nH]c2C2CCCCC2)C1 (stereo unspecified) was read as Mtb H37Rv 0%, RecA splice inh 7.3, Arbovirus anti 0 and Mtb betalactam -5.
`Cc1ccc(Cl)cc1N1CCN(C(=O)c2ccc(CS(=O)Cc3ccc(Cl)cc3)o2)CC1` (stereo unspecified) gave RecA splice inh 21 and Mtb betalactam -5.
Screening CCCCNC(=O)C12CCC(C)(C(=O)C1Br)C2(C)C (stereo unspecified) returned Mtb H37Rv -7%, RecA splice inh -2.1, YopH PTP inh -28, Arbovirus anti 12 and Mtb betalactam -10.
`CC(=O)c1ccc(NC(=O)C2CCN(S(=O)(=O)c3cccc4cccnc34)CC2)cc1` gave Mtb H37Rv -3%, YopH PTP inh -32, Arbovirus anti 2, Mtb betalactam 46 and Arbovirus anti repeat -3.
`Cc1cc(NC(=O)CSCC(=O)OCc2nnc(-c3ccccc3)o2)no1` gave RecA splice inh 2.0 and Mtb betalactam 3.
`CC(C)Oc1cccc(-c2cc(C(=O)N3CCN(S(C)(=O)=O)CC3)c3ccccc3n2)c1` gave Mtb H37Rv 6%, RecA splice inh 2.1, YopH PTP inh 11, Arbovirus anti 0 and Mtb betalactam 0.

Four records drawn at random from the list so far:
Screening O=C(CSc1cccc2cccnc12)N/N=C/c1ccc(O)cc1 returned Mtb H37Rv -14%, RecA splice inh -1.7 and Mtb betalactam 4.
`Cc1cc(NC(=O)CSCC(=O)OCc2nnc(-c3ccccc3)o2)no1` gave RecA splice inh 2.0 and Mtb betalactam 3.
Screening CN(CCC#N)C(=S)Nc1ccc(S(=O)(=O)N2CCOCC2)cc1 returned Mtb H37Rv 0%, RecA splice inh 3.6, Arbovirus anti 27 and Mtb betalactam -1.
COc1ccccc1C(=O)C1CCCN(Cc2cn[nH]c2C2CCCCC2)C1 (stereo unspecified) was read as Mtb H37Rv 0%, RecA splice inh 7.3, Arbovirus anti 0 and Mtb betalactam -5.
